High-throughput results (PubChem BioAssay)
gsp agonist: agonists of gsp mutant (McCune-Albright syndrome); 0.13% of 340,000 active; Potency, µM (titrated, usually from 76.9 µM), without a hit: at the highest dose activation (cAMP increase), most hits filed as activators; gsp mutant cells, cAMP HTRF, 30 min; control for the full effect not named in the record; active = well fitted activation curve with a large enough effect; inconclusive = small, poorly fitted or top-dose-only effect, or another doubt; inactive = no such curve, though single readings can be large or run the other way; cell line not stated here;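 further: phosphodiesterase inhibitor Ro 20-1724 added with compounds to block cAMP breakdown; potency means the concentration at half of the fitted maximal effect; nearly all actives have a fitted effect of over 60% in size; about a fifth of the inactives were tested at one dose only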
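Cells stably selected in G418 were plated at 2000/well, grown 16-24 hr, then given compounds in DMSO with the PDE inhibitor […] (300 uM solution added) for 30 min at 37C; cAMP was read by HTRF.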
Sfp inh: Sfp phosphopantetheinyl transferase inhibition; Biochemical Sfp PPTase activity, qHTS; Potency, µM, for the others: max response, negative = inhibition, most hits filed as inhibitors; 3.5% of 310,000 active; active means well fitted inhibition curve with a large enough effect; inconclusive means small, poorly fitted or top-dose-only effect, or another doubt; inactive means no such curve, though single readings can be large or run the other way;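 further: the enzyme is Sfp with the accession as filed and its product quenches rhodamine fluorescence; potency means the concentration at half of the fitted maximal effect; 0% = enzyme reaction without inhibitor and -100% = no enzyme wells; top concentration of the series not given in the record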
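Compounds were incubated with enzyme (final 15 nM) for 15 min at room temperature before substrate addition started the reaction. Fluorescence at 525 nm excitation, 598 nm emission was recorded immediately and after 30 minutes.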
TRPV1 PAM: human TRPV1 potentiation; Q8NER1; TRPV1-expressing cells, Fluo-8 calcium influx, capsaicin EC20 potentiation; host cell line not named in the record; control for the full effect not named in the record; potentiation, % at 8.33 µM; 0.02% of 320,000 active; AID 540277; active means potentiation above 80%; inconclusive means 30% to 80%; inactive means below 30%; further: 0% is about no effect
Target sequence (Q8NER1 whole entry, looked up): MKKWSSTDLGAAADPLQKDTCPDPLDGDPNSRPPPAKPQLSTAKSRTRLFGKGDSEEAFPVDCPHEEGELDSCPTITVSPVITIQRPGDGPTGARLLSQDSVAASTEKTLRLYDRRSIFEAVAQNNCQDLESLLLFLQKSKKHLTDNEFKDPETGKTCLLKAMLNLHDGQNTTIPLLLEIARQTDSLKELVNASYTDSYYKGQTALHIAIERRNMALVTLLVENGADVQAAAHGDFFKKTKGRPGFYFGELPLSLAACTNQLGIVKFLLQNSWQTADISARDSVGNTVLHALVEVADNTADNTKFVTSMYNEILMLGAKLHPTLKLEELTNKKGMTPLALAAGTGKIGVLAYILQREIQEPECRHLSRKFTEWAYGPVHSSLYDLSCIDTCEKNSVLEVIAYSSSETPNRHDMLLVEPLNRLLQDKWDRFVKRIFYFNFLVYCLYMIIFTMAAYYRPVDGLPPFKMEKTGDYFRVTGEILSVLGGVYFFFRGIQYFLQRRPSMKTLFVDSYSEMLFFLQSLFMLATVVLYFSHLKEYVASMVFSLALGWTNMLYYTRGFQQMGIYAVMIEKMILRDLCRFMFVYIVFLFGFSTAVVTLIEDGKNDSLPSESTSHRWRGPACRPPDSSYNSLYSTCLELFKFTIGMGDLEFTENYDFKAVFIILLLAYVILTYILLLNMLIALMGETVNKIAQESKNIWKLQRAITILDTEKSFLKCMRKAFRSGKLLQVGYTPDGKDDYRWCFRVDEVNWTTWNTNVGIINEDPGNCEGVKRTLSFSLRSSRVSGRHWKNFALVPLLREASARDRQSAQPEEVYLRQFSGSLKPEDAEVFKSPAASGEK
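Fluo-8 calcium influx in TRPV1-expressing cells, kinetic read (ex 480/em 520 nm). Compound added and read 3 min for agonist activity, followed by capsaicin at EC20 final and 2 min further read for enhancement.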
Menin-MLL FL inh: displaces fluorescein MLL peptide from human menin. 290,000 tested, under 10 active. FP activity change, % at 61.4 µM. Fluorescence polarization, fluorescein-MLL peptide displacement from menin. AID 1766; inconclusive = falling polarisation curve, or a change in total fluorescence; inactive = total fluorescence flat and polarisation flat or rising; no compound was filed as active; the % refers to the polarisation; negative = inhibition;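 further: % of control where 0% means no effect; inhibitors lower the polarisation; unlabelled MLL peptide was the positive control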
ClpP mod: qHTS Assay for Activators of ClpP; ATP-dependent Clp protease proteolytic subunit (Bacillus subtilis (strain 168)), P80244; purified B. subtilis ClpP, FRET peptide cleavage, 20 min; Potency, µM (top dose mostly 57.5 µM), inactives show at the highest dose activity change, negative = active; 1.9% of 340,000 active; active = well fitted falling curve with a large enough effect; inconclusive = small, poorly fitted or top-dose-only effect; inactive = no such curve, though single readings can be large or run the other way; further: potency means the concentration at half of the fitted maximal effect; the source files actives as falling curves though it sought activators and does not explain the sign; nearly all actives have a fitted effect of over 65% in size; many hits overshoot -100%
Target sequence (P80244 whole entry, looked up): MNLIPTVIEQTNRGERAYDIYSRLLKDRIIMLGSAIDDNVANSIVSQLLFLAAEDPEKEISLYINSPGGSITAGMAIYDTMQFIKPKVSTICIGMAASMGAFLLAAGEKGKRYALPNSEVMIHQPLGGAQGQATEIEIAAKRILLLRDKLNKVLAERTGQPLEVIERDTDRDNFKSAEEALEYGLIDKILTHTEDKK
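Buffer: 100 mM Tris/HCl pH8, 100 mM KCl, 0.05% low protease BSA, 2.5% glycerol, 0.01% Tween-20. ClpP 10 microg/mL final; 20 min RT; delta FRET normalized to ADEP and DMSO controls.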
gsp antag: antagonizes gsp, the McCune-Albright syndrome mutation | 0.4% of 340,000 active | AID 624288 | gsp-mutant cells, cAMP HTRF, 30 min; control for the full effect not named in the record | Potency, µM (series often up to 76.9 µM), for the others: top-dose activity change, negative = inhibition, most hits filed as inhibitors; active = falling curve of any shape with a large fitted effect; inconclusive = falling curve, mostly with a smaller effect; inactive = flat or rising curve; cell line not stated here;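 further: intracellular cAMP measured with PDE inhibitor Ro 20-1724 present during compound exposure; potency means the concentration at half of the fitted maximal effect; on the % scale 0 is the no-effect control and ±100 the full control effect; nearly all actives have a fitted effect of over 65% in size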
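G418-selected cells were plated in DMEM/10% FBS for 16-24 h at 37C, then treated with compounds plus the PDE inhibitor […] (300 uM solution added) for 30 min at 37C. Intracellular cAMP was measured by HTRF after 30 min lysis at room temperature.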
CtBP-E1A blk: blocks the CtBP interaction with E1A. 0.49% of 340,000 active. activity change, % (concentration not given with the values). AlphaScreen GST-E1A/His-CtBP binding, 1536-well; stronger effect = lower value; control for the full effect not named in the record; in the data active means activity change below about -65%; inconclusive means about -30% to -65%; inactive means above about -30%; further: on the % scale 0 is the no-effect control and ±100 the full control effect
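In 5 uL wells, 23 nL compound meets equimolar GST-E1A and His-CtBP (5X stock 125 nM each) for 2 h, 37 °C. Beads (5X, 50 ug/mL) then 1 h, 37 °C, dark.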
* hit, by the source's call; ? = inconclusive; . = not tested or not shown; & = joins results of further samples; [ ] = dose if it differs, or a comment. Compounds as they come; about 5.3% have a hit in one of these screens.

SMILES	gsp agonist	Sfp inh	TRPV1 PAM	Menin-MLL FL inh	ClpP mod	gsp antag	CtBP-E1A blk
Cc1cccc(C(C)C)c1NC(=O)COC(=O)CN1C(=O)C2CC=CCC2C1=O (configuration not stated)	-9%	.	2	.	0.3%	1%	-1
CC(=O)NCc1ccc(C(=O)CSc2nnc(C3CC3)n2C2CC2)cc1	-55%[inhibitor]	.	3	.	-2.2%	7%	-3
CCCCCCCN(C(=O)CCl)c1cccc(C)c1	12%[15.4 µM]	4%	-9	5.1	-3.6%	-9%	12
CCOC(=O)c1sc(NC(=O)CSc2n[nH]c(C)n2)nc1C	-6%	13%	2	-6.9	.	-5%	3
O=C(Cc1ccccc1)Nc1ccccc1Oc1ccccc1	8%	17%	-3	2.4	1.0%	-4%	7
O=C(NC1CCCCCCC1)C1c2ccccc2C(=O)N1Cc1cccs1 (configuration not stated)	10%	-13%	0	6.1	-3.9%	-16%	-1
Cc1ccc(NC(=O)CSc2nc3ccc(Nc4nc(N5CCOCC5)nc(N5CCOCC5)n4)cc3s2)cc1	-6%	?	-5	.	0.8%	-13%	8
CCOC(=O)/C(=N/Nc1ccc(Cl)cc1)S(=O)(=O)c1ccccc1	-14%	2%	-2	3.1	-1.2%	-9%	-9
Cc1cccc(-c2ncc(S(=O)(=O)C(C)(C)C)c(N)n2)c1	-9%[15.4 µM]	13%	1	4.7	-2.9%	7%	-15
C=CCOC(=O)C1=C(C)NC(C)=C(C(=O)OCC=C)C1c1cccs1	-26%	25%	9	0.2	-27%	-14%	12
Cc1c(N=Cc2cc3c(cc2Cl)OCO3)c(=O)n(-c2ccccc2)n1C	-1%	-16%	9	7.7	-2.2%	-4%	5
O=C(Nc1ccc(O)cc1)/C(=C\c1ccncc1)NC(=O)c1ccccc1	12%[15.4 µM]	11%	6	-2.4	.	19%	-10
CC1(C)CC(CC(=O)NC(=S)Nc2ccc([N+](=O)[O-])cc2)C(=O)O1 (configuration not stated)	11%	-16%	-2	2.9	1.7%	-6%	-2
COc1ccc(C(=O)Nc2ccccc2C(=O)NC(C)C)cc1OC	4%	25%	4	2.7	-2.0%	10%	3
O=c1[nH]c(C2CCN(S(=O)(=O)/C=C/c3ccccc3)CC2)nc2c1nnn2Cc1ccccc1	7%[15.4 µM]	8%	13	1.9	?	-1%	-14
O=C(NCc1ccccn1)c1n[nH]c(=O)c2ccccc12	-4%	8%	-9	7.4	-2.5%	8%	.
Cn1c(CNC(=O)c2cccs2)nnc1SCC(=O)Nc1ccc(Cl)cc1	-43%[inhibitor]	8%	5	1.3	-0.9%	9%	3
O=C(CSc1ncccn1)Nc1ncc(C(F)(F)F)cc1Cl	-17%	?	0	-1.3	1.8%	6%	6
O=C(CSCc1ccc(Cl)cc1)NN=C1CCCC1	-7%	17%	-7	-2.3	2.2%	4%	-1
O=C(NCC(c1ccco1)N1CCCCC1)c1ccc(S(=O)(=O)Nc2ccccc2)cc1 (configuration not stated)	12%[15.4 µM]	.	-1	.	.	-5%	5
CC1(C)CC(=O)C(C=NCCC2=CCCCC2)=C(O)C1	-10%	-7%	19	4.1	-0.7%	8%	10
CN(C(=O)COC(=O)c1ccccc1NC(=O)c1ccco1)C1CCS(=O)(=O)C1 (configuration not stated)	4%[15.4 µM]	13%	12	1.4	.	-14%	-1
CCOc1ccc(CNCc2ccc(C(=O)O)cc2)cc1OC	-4%[15.4 µM]	-8%	2	6.1	.	.	-6
O=C(O)CCC(=O)Nc1ccc(S(=O)(=O)N2CCCC2)cc1	-17%	12%	1	1.0	0.6%	9%	10
O=c1ccc2c(-c3ccccc3S(=O)(=O)O)c3ccc(O)c(O)c3oc-2c1O	23%	.	13	.	0.5%	?	-79*
O=C(NCCc1ccccc1)C1CCC(CNS(=O)(=O)c2ccc(F)cc2)CC1 (configuration not stated)	13%	5%	-7	.	0.4%	11%	3
CCOc1ccc(N=C2Sc3nc4ccc(C)cc4cc3CN2CCOC)cc1	-40%[inhibitor]	?	20	2.6	-1.8%	-29%	-5
Cc1sc2nc(SCC(=O)Nc3ccc(S(N)(=O)=O)cc3)[nH]c(=O)c2c1C	15%	-11%	3	1.8	-0.9%	-1%	-1
COc1ccc(-c2noc(CCC(=O)NC3CCCCCC3)n2)cc1OC	-37%[inhibitor]	.	.	.	-3.7%	.	-7
COc1ccc(N(CC(=O)N/N=C/c2cccnc2)S(=O)(=O)c2ccccc2)c(OC)c1	-2%[15.4 µM]	9%	9	0.7	-29%	-4%	10

Whole records as entered above. Order of screens: gsp agonist	Sfp inh	TRPV1 PAM	Menin-MLL FL inh	ClpP mod	gsp antag	CtBP-E1A blk
CCOc1ccc(CNCc2ccc(C(=O)O)cc2)cc1OC is listed as -4%[15.4 µM]	-8%	2	6.1	.	.	-6
CC1(C)CC(=O)C(C=NCCC2=CCCCC2)=C(O)C1 is listed as -10%	-7%	19	4.1	-0.7%	8%	10

More entries follow:
SMILES	gsp agonist	Sfp inh	TRPV1 PAM	Menin-MLL FL inh	ClpP mod	gsp antag	CtBP-E1A blk
CCOC(=O)C1=C(C)N(CC)C(=S)NC1c1ccccc1OC(F)F (configuration not stated)	-15%[15.4 µM]	22%	-19	-2.9	.	-8%	11
c1coc(CN2CNc3nc4ccccc4n3C2)c1	-1%[15.4 µM]	9%	-3	2.8	0.5%	-8%	8
Cc1cc(C(=O)NC2CCCC2)c2ccccc2n1	-10%	10%	12	.	.	6%	-8
CCCOC(=O)c1ccc(NC(=O)C2C3CCC(C3)C2C(=O)O)cc1 (configuration not stated)	-39%[inhibitor]	-3%	?	.	-2.7%	0%	11
CCOC(=O)C1CCCN(CC(=O)c2ccc(F)cc2)C1 (configuration not stated)	0%[15.4 µM]	50µM*	5	2.2	-0.6%	14%	-16
CSc1nc2ccc3nc(NC(=O)c4ccc(Cl)s4)sc3c2s1	10%	-1%	19	-1.3	-10%	4%	5
Cc1ccc(NC(=O)C2COc3ccccc3O2)cc1S(=O)(=O)N1CCCCC1 (configuration not stated)	-1%	.	-6	.	-1.4%	?	.
O=C1CC(c2ccc3c(c2)OCCO3)Oc2ccccc21 (configuration not stated)	4%	-3%	-32	0.8	0.7%	1%	6
Cc1cc(C)nc(Nc2n[nH]c(COc3cccc4ccccc34)n2)n1	-8%	10%	25	2.5	1.5%	12%	5
Cc1cc(CNC(=O)C(C)n2nc(C)c([N+](=O)[O-])c2C)c2ccccc2n1 (configuration not stated)	5%[15.4 µM]	15%	6	4.5	-2.1%	-3%	-12
Cc1cc([N+](=O)[O-])ccc1NC(=O)C1CCCO1 (configuration not stated)	-1%	5%	-2	2.7	-14%	8%	5
CNC(=O)NC(=O)CSc1nc2cc(C(=O)OC)ccc2c(=O)n1-c1ccccc1	14%	10%	0	-1.9	-10%	17%	-1
Cc1cccc(C(=O)Nc2ccc(C(=O)/C=C/c3ccncc3)cc2)c1	-36%[inhibitor]	?	-28	5.1	.	2%	1
Cc1ccc(C)c(N2CCN(S(=O)(=O)c3ccc4c(c3)CC(C)N4C(=O)C3CC3)CC2)c1 (configuration not stated)	22%	-1%	-2	-1.5	-2.0%	5%	-1
CCOc1ccc2[nH]c(=O)c(CN(CCO)C(=O)c3ccccc3F)cc2c1	0%	9%	-24	4.0	32µM*	3%	-1
CSc1nc2ccc3nc(NC(=O)c4ccccc4)sc3c2s1	2%	?	-11	1.1	4.4%	-3%	-1
CC/C=C(\NC(C)=O)c1ccccc1	-22%	.	11	.	-0.1%	3%	7
CC(Sc1ccc(Cl)cc1)C(=O)NCc1ccc2c(c1)OCO2 (configuration not stated)	?	7%	-1	3.9	0.2%	-3%	2
CCC(C)(C)n1nnnc1CN(Cc1cc2cc(OC)ccc2[nH]c1=O)C1CCCC1	-5%	12%	-13	0.4	4.5%	-15%	8
Cc1ccccc1CNC(=O)C(C)Sc1ccccc1 (configuration not stated)	-54%[inhibitor]	.	.	.	1.2%	.	8
Clc1ccc(OCCN2CCOCC2)cc1Cl	7%	-6%	22	-3.2	-0.5%	12%	4
CC(C)NC(=O)COc1coc(CN2CCN(c3ccccc3F)CC2)cc1=O	-12%	9%	-8	-2.3	0.4%	-1%	3
C/C(=N\NC(=O)c1ccccc1O)c1ccc(NC(=O)Cc2ccccc2)cc1	-10%[15.4 µM]	8%	18	.	-6.9%	4%	-5
CN(/N=C/c1ccncc1)c1cnn(-c2ccc(F)c(Cl)c2)c(=O)c1Cl	3%	8%	3	1.7	-0.6%	-9%	2
CCOC(=O)c1cn(-c2nc(-c3ccc(Cl)cc3)cs2)c2c(F)c(N3CC(C)OC(C)C3)c(F)cc2c1=O (configuration not stated)	.	22%	-2	3.7	.	.	.
Cn1c(CC(=O)NNC(=O)c2ccc(F)cc2F)nc2ccccc21	12%	.	-1	.	1.6%	14%	?
O=C(Nc1ccccc1)O[C@@H]1C[C@H]2CCCC(=O)N3CC[C@@H](C1)[C@@H]23	.	.	.	.	-1.1%&-4.0%	7%	1
Cc1ccc(C(=O)Nc2ccc(C)c(S(=O)(=O)N3CCOCC3)c2)c(C)c1	-11%	10%	-15	.	0.4%	-13%	22
CCOc1ccccc1NC(=O)Nc1ccc2c(c1)CCC2	9%	8%	1	.	-4.3%	-22%	-1
Cc1cc(/C=N/NC(=O)CC2(C)OCCO2)c(C)n1-c1ccc(Cl)c(Cl)c1	-4%	-16%	0	5.0	-2.4%	6%	-8
CC(/C=C/c1ccco1)=N/NC(=O)c1ccccc1Cl	-15%	35µM*	-4	5.6	0.7%	-6%	-8
COc1cccc(C2CCCCN(C)C2=O)c1 (configuration not stated)	-4%	8%	0	-9.6	.	8%	5
CC(C)CC(=O)N=C1SC2CS(=O)(=O)CC2N1Cc1ccccc1Cl (configuration not stated)	-7%	7%	-3	0.1	1.5%	1%	.
CC(C)c1ccc(NC(=O)COC(=O)CC2CCCC2)cc1	5%	.	.	.	-4.8%	1%	2
Fc1ccc(-c2csc(-c3ccncc3)n2)cc1	5%[15.4 µM]	8%	-12	2.1	0.7%	4%	2
N#Cc1ccc(N/N=C/c2cn(-c3ccccc3)nc2-c2ccccc2)c([N+](=O)[O-])c1	-14%	-5%	3	5.2	0.5%	11%	0
COc1c(F)c(F)c(C(=O)O)c(Nc2ccccc2C)c1F	?	6%	14	-0.1	-2.5%	-30%	5
COC(=O)c1sc(SC)c(-c2ccon2)c1C	-4%[15.4 µM]	-9%	-2	-1.1	-1.4%	0%	-1
